Bioassay records: PubChem BioAssay, several laboratories
YopH inh: YopH tyrosine phosphatase inhibitors, primary screen, biochemical, fluorescence Ex485/Em525 | 140,000 tested, 0.16% active | AID 898, 2007 | inhibition, %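 (about 10 µM by stock and volumes)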 | YopH tyrosine phosphatase [Yersinia enterocolitica];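 active = inhibition of 50% or more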;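 note: controls were vehicle for no effect and minimum signal wells for full effect; inactives centre near -20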
RecA splice inh: Mtb RecA intein splicing inhibitors, primary screen, biochemical, fluorescence, HTS; cell-free RecA intein splicing; 290,000 tested, 0.75% active; AID 2221, 2009; Protein RecA (Mycobacterium tuberculosis (strain ATCC 25618 / H37Rv)), P9WHJ3; inhibition, %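 (about 9 µM by stock and volumes)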; in the data active = inhibition above about 30%; inconclusive = no clear call, values can overlap the other calls;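 note: 0% = vehicle wells and 100% = reference inhibitor control wells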
Target sequence (P9WHJ3 whole entry, looked up, canonical isoform): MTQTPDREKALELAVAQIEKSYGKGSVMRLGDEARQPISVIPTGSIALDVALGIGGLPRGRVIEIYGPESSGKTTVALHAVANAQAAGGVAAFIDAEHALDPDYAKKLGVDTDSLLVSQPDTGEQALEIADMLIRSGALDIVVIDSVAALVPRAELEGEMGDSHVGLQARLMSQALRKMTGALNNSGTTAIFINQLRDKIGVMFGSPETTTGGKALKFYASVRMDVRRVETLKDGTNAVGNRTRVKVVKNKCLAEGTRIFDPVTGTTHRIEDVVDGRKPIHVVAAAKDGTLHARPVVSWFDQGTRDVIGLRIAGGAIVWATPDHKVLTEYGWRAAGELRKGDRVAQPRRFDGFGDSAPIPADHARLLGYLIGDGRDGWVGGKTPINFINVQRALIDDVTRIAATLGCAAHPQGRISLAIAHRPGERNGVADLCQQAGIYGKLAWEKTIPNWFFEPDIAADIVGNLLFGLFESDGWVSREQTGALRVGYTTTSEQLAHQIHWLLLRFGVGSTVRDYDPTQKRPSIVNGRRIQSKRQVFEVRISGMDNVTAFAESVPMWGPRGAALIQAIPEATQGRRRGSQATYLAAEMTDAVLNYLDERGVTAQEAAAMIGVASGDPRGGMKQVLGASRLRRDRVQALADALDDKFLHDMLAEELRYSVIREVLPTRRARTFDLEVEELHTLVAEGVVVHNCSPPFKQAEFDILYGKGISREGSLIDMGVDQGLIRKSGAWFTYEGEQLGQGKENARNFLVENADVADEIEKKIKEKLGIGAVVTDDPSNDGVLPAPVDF
Mtb betalactam: beta-lactam sensitization of Mtb H37Rv, H37Rv. M. tuberculosis H37Rv growth with meropenem, percent inhibition; hits of this screen are not shown here. inhibition, % at 25 µM. 330,000 tested, 0.27% active;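 active = about 74% or more and at least 40 points above the plate without the antibiotic, then above 30% in a dose series; inconclusive = first-round hits that could not be retested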;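 note: growth measured after seven days incubation then overnight dye step; 0% = bacteria only wells and 100% = bacteria with antibiotic; twin plates without the antibiotic show which effects depend on it; some results filed as inactive read as strong as hits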
Arbovirus anti: antivirals against arbovirus infection, primary screen, cell-based, full library, 10K replicate subset | inhibition, % at 10 µM | 200,000 tested, 0.37% active | arbovirus infection cell-based antiviral screen;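 active = inhibition from about 30%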;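 note: bluetongue infection of BSR cells; cell survival read as ATP light after 72 h; 0% = infected wells without compound and 100% = uninfected wells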
Mtb H37Rv: M. tuberculosis H37Rv growth inhibitors, H37Rv strain (AID 1626). M. tuberculosis H37Rv growth inhibition; higher % means a stronger effect. one-dose inhibition, % at 10 µM; IC50 in µM for titrated hits. 220,000 tested, 0.95% active;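 active = confirmed in a dose series; inconclusive = inhibition above 80% but not taken into the dose series; inactive = below 80% or under 30% at every dose of the series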;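 note: bacteria incubated seven days before Alamar blue readout; 0% = bacteria only wells and 100% = bacteria with antibiotic wells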
Arbovirus anti repeat: second read-out of Arbovirus anti, no call of its own (marks repeat the call); inhibition, %; measured here: 10K subset replicate screen; many hits read low in the repeat;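 first of two repeat runs on a subset; 0% = infected and 100% = uninfected wells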
Numbers without * were called inactive; ? = inconclusive; nt = no result given. A portion of the library. The share of hits here may be higher or lower than overall.

SMILES	YopH inh	RecA splice inh	Mtb betalactam	Arbovirus anti	Mtb H37Rv	others
O=C(OCCN(CCOC(=O)c1ccncc1)S(=O)(=O)c1cccs1)c1ccncc1	3.0	0.3	3.5	7.1	-6.7%	Arbovirus anti repeat=6.5
Cc1cccc(OCCCC(=O)Nc2nc3ccccc3[nH]2)c1	nt	-1.3	90.0	-3.0	62.0%
CC(=O)N1CCOc2ccc(S(=O)(=O)NCCc3ccc(S(N)(=O)=O)cc3)cc21	nt	3.3	4.9	nt	nt
Cc1nn(-c2ccc(Cl)cc2Cl)c(=O)c2ccccc12	3.8	nt	0.4	-8.0	7.1%
O=C(/C=C/c1ccccc1)N1CCC(Cc2ccccc2)CC1	10.8	3.2	4.5	7.3	nt
O=C(NC1CCCc2ccccc21)c1ccccc1Br (stereo not drawn)	-31.1	-1.4	34.7	4.4	3.2%
COc1ccc2c(c1)C(=O)[C@@H](OC(=O)NCc1ccc3c(c1)OCO3)[C@H](c1ccc(OC)c(Br)c1)O2	-22.6	nt	nt	-15.9	-2.1%
CCOc1ccc(NC(=O)C(C)Sc2nccn2C)cc1 (stereo not drawn)	nt	-2.0	0.2	nt	nt
CC1CCCCN1C(=O)COC(=O)C1CCN(S(=O)(=O)c2ccc3c(c2)OCCO3)CC1 (stereo not drawn)	nt	-1.7	-3.6	nt	nt
CC1(C)CC(=O)c2sc(NC(=O)CCS(=O)(=O)c3ccccc3)nc2C1	-47.0	6.9	88.3	-40.5	-0.1%
C=CCN1C(=O)CN=C1Nc1ccc(F)cc1	nt	0.5	-0.6	2.6	-16.5%
O=S(=O)(NC1=NCCCCCC1)c1cccs1	-39.2	0.4	2.0	1.4	-4.4%
O=C(COc1ccc(Cl)cc1)Nc1ccc2oc(-c3ccncc3)nc2c1	-6.7	-2.7	-0.6	-1.4	2.3%
O=S(=O)(c1ccccc1)N1N=C(c2cccs2)CC1c1cccc(O)c1 (stereo not drawn)	nt	5.8	-3.9	nt	nt
COC(=O)Cc1ccc(NC(=O)c2ccc(Br)o2)cc1	8.6	0.3	92.3	0.8	>100µM*
CC1CC(C)CN(C(=O)c2ccc(S(=O)(=O)N3CCCC3)cc2)C1 (stereo not drawn)	nt	-0.7	23.3	nt	nt
NC(=S)N/N=C/C=C/c1ccccc1	-15.0	-1.7	97.8	-7.3	78.1%
O=c1c2cc(Br)cc(Br)c2oc2nc3n(c(=O)c12)CCCS3	-3.0	2.6	99.9	9.5	nt
CN(C)c1cc(N)c2c(n1)CCC2 (tested in a mixture with another compound)	13.4	-0.8	-14.1	-12.7	-3.5%
CC(C)c1ccccc1NC(=O)C1C2C=CC(C2)C1C(=O)O (stereo not drawn)	nt	-1.6	-3.5	nt	nt
CC(=O)NNC(=O)CCC(=O)Nc1ccccc1	-24.0	-0.2	33.1	7.0	-0.5%
COc1cc(OC)cc(C(=O)NCCN2CCOCC2)c1	-25.1	-2.5	1.6	6.0	-13.8%
COC(=O)C1CN(C(=O)C(C)Oc2ccc(C)c(C)c2)c2ccccc2O1 (stereo not drawn)	nt	-0.6	-0.7	nt	nt
O=C(CCn1c(=S)[nH]c2ccccc2c1=O)NCCc1ccc(Cl)cc1	nt	-1.3	-0.3	8.8	3.3%
Cc1cc(C)nc(N2N=C(C(C)(C)C)CC2=O)n1	1.2	39.8*	29.7	4.2	-2.7%

In the list so far, these have an aryl methoxy group:
SMILES	YopH inh	RecA splice inh	Mtb betalactam	Arbovirus anti	Mtb H37Rv	others
COc1ccc2c(c1)C(=O)[C@@H](OC(=O)NCc1ccc3c(c1)OCO3)[C@H](c1ccc(OC)c(Br)c1)O2	-22.6	nt	nt	-15.9	-2.1%
COc1cc(OC)cc(C(=O)NCCN2CCOCC2)c1	-25.1	-2.5	1.6	6.0	-13.8%

Returning to the listing with the three entries that preceded the break.
SMILES	YopH inh	RecA splice inh	Mtb betalactam	Arbovirus anti	Mtb H37Rv	others
COC(=O)C1CN(C(=O)C(C)Oc2ccc(C)c(C)c2)c2ccccc2O1 (stereo not drawn)	nt	-0.6	-0.7	nt	nt
O=C(CCn1c(=S)[nH]c2ccccc2c1=O)NCCc1ccc(Cl)cc1	nt	-1.3	-0.3	8.8	3.3%
Cc1cc(C)nc(N2N=C(C(C)(C)C)CC2=O)n1	1.2	39.8*	29.7	4.2	-2.7%
CC(=O)c1cccc(N/C=C\c2nnnn2-c2ccc(F)cc2)c1	-21.8	-1.7	-0.4	-5.3	-3.4%
COc1ccc(NC(=O)CN(C)C(=O)Cc2n[nH]c(=O)c3ccccc23)cc1	nt	-1.0	-3.6	nt	nt
CCCn1nc2cc(C(=O)NCc3ccc(OC(F)(F)F)cc3)ccc2c1OCC	-9.3	-2.8	-1.8	-13.1	-4.0%
CSc1ccc(S(=O)(=O)NCC(=O)OCC(=O)N2CCCC2=O)cc1[N+](=O)[O-]	nt	-0.2	-3.2	nt	nt
CC(=N\NC(=O)c1ccccc1)/C(=N/O)C(=O)Nc1ccccc1	nt	0.3	36.8	nt	nt
COc1ccc(C)cc1NC(=O)COC(=O)c1ccc(OCc2ccc(Cl)cc2Cl)c(OC)c1	-28.4	0.2	0.1	3.4	5.3%
C=C(COC(=O)CCC(=O)O)CC1CC(O)[C@]2(C)OC3CC4OC5C[C@]6(C)O[C@]7(C)CCC8OC9C[C@]%10(C)OC%11C(C)=CC(=O)OC%11CC%10OC9C[C@@H](C)C8OC7CC6O[C@]5(C)C/C=C\C4OC3CC2O1 (stereo partly drawn)	nt	nt	9.1	nt	-9.1%
CCN1CCN(Cc2c3ccccc3cc3ccccc23)CC1	nt	1.0	-0.2	nt	nt
Cc1ccc(C(=O)Nc2nc(N)n(-c3ccccc3)n2)cc1	nt	-1.7	-2.8	nt	-13.1%
O=C(O)Cn1nnnc1SCC(=O)Nc1ccc(F)cc1F	nt	-1.1	1.4	5.6	-4.6%
O=C(COC(=O)CCC(=O)c1ccc(F)cc1)Nc1cccc(S(=O)(=O)N2CCOCC2)c1	nt	-0.2	-5.3	-1.3	-4.0%
CCc1ccc(C(=O)NNC(=O)c2c(CC)noc2C)cc1	nt	-5.0	2.3	nt	nt
N#Cc1nc(-c2cccs2)oc1N1CCN(c2ccccc2)CC1	-16.1	5.2	-4.3	-2.9	-6.8%
COc1ccc(NC(=O)CCN2CCC(C)CC2)cc1	6.5	0.2	0.3	1.2	-12.1%
CCOc1ccc(NC(=O)CS(=O)CC(=O)N(CC(=O)NC(C)(C)C)C2CCCC2)cc1 (stereo not drawn)	nt	17.2	0.3	nt	nt
COc1ccc2[nH]c(C)c(CCNC(=S)Nc3ccccc3C)c2c1	-25.6	1.2	-3.7	3.4	nt
Cc1ccc(C)c(S(=O)(=O)N(C)C2(C)CCS(=O)(=O)C2)c1 (stereo not drawn)	nt	-2.7	-0.9	nt	nt
O=C(CCNC(=O)c1ccccc1Cl)Nc1ccccc1N1CCCC1	nt	0.8	-17.3	nt	nt
CCOC(=O)CCCNC(=O)CSc1nc2ccc(OCC)cc2[nH]1	nt	0.5	9.8	1.4	-1.0%
Cc1ccc(NC(=O)C(=O)NCCCN2CCOCC2)c(C)c1	nt	-1.7	-6.0	nt	6.6%
Cc1ccc(N2C(=O)N(CC(=O)Nc3ccc(F)c(F)c3)C(=O)C2C)cc1 (stereo not drawn)	nt	-0.3	2.7	nt	nt
CCOC(=O)c1ccc(NC(=O)CNC(=O)C23CC4CC(CC(C4)C2)C3)cc1	-8.5	-0.2	7.3	-3.5	-2.8%
CN(Cc1ccccc1)C(=O)Cn1c(=O)oc2cc(S(=O)(=O)N3CCCC3)ccc21	1.2	-4.0	-4.3	3.1	1.3%
Cc1ccc2[nH]c(=O)c(CN(Cc3cccs3)C(=S)NCC3CCCO3)cc2c1 (stereo not drawn)	-19.0	4.7	1.6	-8.3	-3.2%
CCN(C(=S)Nc1cccnc1)c1ccccc1	nt	-0.3	-4.2	0.1	-1.0%

Quoted at random: two compounds from above
SMILES	YopH inh	RecA splice inh	Mtb betalactam	Arbovirus anti	Mtb H37Rv	others
CC(=N\NC(=O)c1ccccc1)/C(=N/O)C(=O)Nc1ccccc1	nt	0.3	36.8	nt	nt
CSc1ccc(S(=O)(=O)NCC(=O)OCC(=O)N2CCCC2=O)cc1[N+](=O)[O-]	nt	-0.2	-3.2	nt	nt

(continued)
SMILES	YopH inh	RecA splice inh	Mtb betalactam	Arbovirus anti	Mtb H37Rv	others
O=C(NNC(=O)c1cc2ccccc2cc1O)Nc1ccc(F)cc1F	nt	-7.4	-13.1	nt	nt
Cc1ccc2c(COC(=O)c3ccccc3Br)cc(=O)oc2c1	nt	0.5	9.2	nt	nt
CCCn1c(COc2ccccc2)nc2ccccc21	nt	4.7	-0.5	nt	nt
COc1ccccc1Nc1nc(Cl)c(C=O)s1	nt	-2.1	1.2	-0.6	4.2%
O=C(Nc1cccc2ncccc12)c1cc([N+](=O)[O-])ccc1Cl	nt	-2.2	-4.4	nt	nt
Cc1cccn2c(=O)c(/C=N/O)c(N3CCCCC3)nc12	-28.4	-2.2	8.0	8.8	0.6%
O=C(NCc1ccccc1Cl)C1CCN(S(=O)(=O)N2CCOCC2)CC1	nt	3.0	-4.7	4.9	2.3%
CCOc1ccc(NC(=O)N(C2CCCC2)C2CCN(C(C)=O)CC2)cc1	nt	3.5	15.8	-3.3	?
CCN1CCN(c2ccc(S(=O)(=O)N3CCCCC3)cc2NC(=O)/C=C/c2ccc(F)cc2)CC1	nt	0.9	0.4	nt	nt
COc1ccc(Cc2nnc(NC(=O)Cn3cnc4c3c(=O)n(C)c(=O)n4C)s2)cc1	-24.6	3.1	-12.2	0.5	0.1%
O=c1c2c(nc3cc(-c4ccc(F)cc4)[nH]n13)CCCC2	-44.9	-1.1	5.4	-4.8	6.7%
COCc1c(CCl)cnc(C)c1O	nt	1.4	-1.0	-1.9	3.5%
O=c1c2cn[nH]c2nc(SCc2c(F)cccc2F)n1-c1ccc(Cl)cc1	nt	-0.4	18.3	-28.4	0.3%
Cc1cccc(OCC(O)Cn2c(N3CCCCC3)nc3c2c(=O)[nH]c(=O)n3C)c1 (stereo not drawn)	nt	-2.9	-7.9	nt	nt
CC1=NNC(=O)C1C(c1ccc(F)cc1)C(C#N)C#N (stereo not drawn)	-4.7	85.3*	-8.0	nt	-1.4%
Cc1ccc(NC(=O)CCc2ccc(C)o2)c(C)c1	nt	2.0	23.2	nt	nt
O=C(COC(=O)/C=C/c1cccc(Br)c1)NCc1ccco1	nt	-0.9	3.5	nt	nt
Cc1ccc2cc(CN(C(=O)c3ccncc3)C(C)C)c(=O)[nH]c2c1	-49.1	-0.7	6.3	5.7	3.6%
O=C(N/N=C/c1sc(N2CCOCC2)nc1-c1ccccc1)c1ccccc1O	9.4	0.9	6.6	-8.0	-1.7%
CCOc1ccc(-c2nc(N)ncc2Oc2ccc(OC)cc2)c(O)c1	nt	0.3	29.2	nt	1.6%
CCCC(=O)Nc1ccccc1-c1nnn(CC(=O)Nc2ccc(OCC)cc2)n1	-75.7	-0.2	1.1	-11.6	-11.9%
CCCCNC(=O)Nc1ccc(C(O)(C(=O)OCC)C(F)(F)F)cc1 (stereo not drawn)	-46.7	0.7	-4.1	1.8	3.4%
COc1ccc(C(=O)NNC(=S)NC(=O)c2ccc(OC)cc2)cc1	nt	-2.3	93.8	nt	nt
COc1cc2c(cc1OC)C(Cc1ccc(O)cc1)N(C)CC2 (stereo not drawn)	-10.4	-4.8	1.6	-8.8	-4.1%
Cc1cc(F)ccc1S(=O)(=O)N(C(=O)c1ccncc1)c1ccc(OC(=O)c2ccncc2)cc1	nt	30.5*	-6.0	-5.3	-1.1%
